Anthrax LT inh: qHTS Assay for Anthrax Lethal Toxin Internalization | Cells, anthrax lethal toxin internalization, FRET ratio (460/530) | Potency, µM (doses to about 40 µM), without a hit: top-dose activity change, negative = inhibition, hits mostly inhibitors | 70,000 tested, 0.67% active | AID 912, 2007; active = well fitted falling ratio curve with the 530 nm signal flat; inconclusive = other ratio curves, or a change in one channel alone; inactive = flat curves in the ratio and both channels; the % refers to the ratio; note: % is set by controls: 0 for no effect and ±100 for the full control effect; nearly all actives have a fitted effect of over 50% in size; tested in ME-180 cells; beta-lactamase reporter
Prx2 Sm inh: Schistosoma Mansoni Peroxiredoxins (Prx2). S. mansoni Prx2 activity coupled to TGR/GSH (TGR is thioredoxin glutathione reductase), NADPH fluorescence loss, qHTS; some inactives read as strong as hits. Potency, µM. 65,000 tested, 0.07% active. AID 448, 2006; active means full or partial inhibition curve with a strong effect at the top dose; inconclusive means weaker partial or single-point curve; inactive means no accepted curve; note: series up to 57 µM; many of its hits are not listed in these tables
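Prx2 inhibition was measured as reduced NADPH consumption when electrons flowed from NADPH through TGR and glutathione to Prx2 and H2O2. Plates were read kinetically over 8 min; enzyme reagents were held at 4 deg C during dispensing.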
* = called active by the depositor; ? = inconclusive; nt = not tested or not shown; [ ] = dose if it differs, or a comment. Potency is the fitted concentration of half-maximal effect. A portion of the library; the hit share may differ from the screen's.

canonical_smiles	Anthrax LT inh	Prx2 Sm inh
Cc1ccc(S(=O)(=O)N2Cc3ccccc3CC2C(=O)Nn2cnnc2)cc1 (centres undefined)	-9.8%	>57
Cc1cnc(NC(=O)CSc2nnc(-c3ccccc3)o2)s1	?	>57
c1ccc(COn2nnc3ccccc32)c(COn2nnc3ccccc32)c1	?	>57
Cc1cccc(Nc2nc(N)nc(CN3CCC(C(N)=O)CC3)n2)c1C	-6.2%	>57
COC(=O)c1oc2ccccc2c1NC(=O)CN1CCCC1	-2.4%	>57
COc1ccc(Nc2cc(C(=O)NCCCN3CCN(C)CC3)c3ccccc3n2)cc1	-17.8%	>57
c1ccc(CCc2cccnc2)nc1	0.0%[8 µM]	>57
CC1(C)CC(=O)C=C(Nc2ccc(C(=O)O)cc2)C1	-14.9%	>57
CSc1nnc2c(n1)OC(C)N(C(=O)c1ccccc1)c1ccccc1-2 (centres undefined)	-15.3%	nt
CN1CCN(CCc2nc3cc(NC(=O)COc4ccccc4)ccc3n2C)CC1	nt	>57
COc1ccc(-c2nnc(SCC(=O)Nc3ccc(C)cc3)n2C)cc1	-4.7%	>57
CC(=O)N1CCN2C(=O)C1CCCC(=O)c1cc(C3CCCCC3)ccc12 (centres undefined)	-6.1%	>57
Cc1nonc1NC(=O)CSc1nc(C2CCCCC2)nc2ccccc12	?	>57
Cc1cc2c(N3CCCCC3C)ncnc2s1 (centres undefined)	-6.7%	>57
CC1CCCCN1S(=O)(=O)c1ccc(NC(=O)c2cccc(-n3cnnn3)c2)cc1 (centres undefined)	?	>57
COc1cccc(-c2nn(-c3ccccc3)cc2CO)c1	-11.7%	>57
COc1ccc(NC(=O)C2CCCN(c3c4c(nc5ncnn35)CCC4)C2)cc1 (centres undefined)	1.1%	>57
CCNC(=O)c1cc2c(=O)n3cccc(C)c3nc2n(Cc2ccc(C)cc2)c1=N	nt	>57
CCN1CCCC1CNc1ncnc2c1[nH]c1ccc(F)cc12 (centres undefined)	nt	>57
CC(C)CNC(=O)COc1ccc2c3c(c(=O)oc2c1)CCC3	-1.4%	>57
O=C(COC(=O)Cn1cnc2ccccc21)NCCC1=CCCCC1	5.3%	>57
Cc1ccc(N(CC(O)COCc2ccco2)S(=O)(=O)c2ccc(C)cc2)cc1 (centres undefined)	-7.4%	>57
CC(=O)c1c(C)n([O-])c2ccccc2[n+]1=O	3.1%	>57
CCSCc1nnc(SCC(=O)Nc2nc3ccccc3s2)n1C	-11.7%	>57
CCOC(=O)N1CCN(C(=O)c2ccccc2N(C)S(C)(=O)=O)CC1	7.1%	>57
CCN(CC)CCCN1C(=O)C(O)=C(C(=O)c2sc(C)nc2C)C1c1ccco1 (centres undefined)	-21.8%	>57
COc1ccc(Oc2ncc3ncc(=O)n(Cc4ccc(F)cc4)c3n2)cc1	?	>57
COC(=O)C1(C)Nc2ccccc2C(=O)N1c1ccccc1C (centres undefined)	-10.2%	>57
c1ccc2[nH]c(NC3=NCCC3)nc2c1	-10.1%	>57
COCCCNC(=O)CSC1=Nc2ccccc2C2=NC(Cc3c[nH]c4ccccc34)C(=O)N12 (centres undefined)	-0.4%	>57
Cc1ccc(N=Cc2ccc(O)cc2O)cc1F	-12.6%	nt
NC(=S)NNC(N)=S	0.0%	nt
CN(CCC(=O)Nc1ccc2c(c1)OCO2)Cc1ccccc1	?	>57
CCOc1ccccc1NC(=O)NC1CCN(CC(=O)Nc2ccc3c(c2)OCCO3)CC1	-13.6%	>57
Cc1noc(C)c1CSc1nnc(-c2ccccc2F)n1CCc1ccccc1	2.1%	>57
CCOC(=O)CC(=O)CSc1nnc(Cn2c(=O)sc3ccccc32)n1C	-1.0%	>57
CN1CCN(C(=O)c2ccc3c(c2)NC(=O)C(N2CCOCC2)S3)CC1 (centres undefined)	?	>57
CCCOc1ccc(C2/C(=C(\O)c3c(C)[nH]c(C(=O)OC)c3C)C(=O)C(=O)N2CCN(C)C)cc1 (centres undefined)	-4.2%	>57
O=C(C1CCCN(S(=O)(=O)c2ccc(Br)s2)C1)N1CCCCCC1 (centres undefined)	-3.0%	>57
Cc1cccc(-c2noc(-c3ccc(F)cc3)n2)c1	-2.1%	>57
c1ccc(Cn2nnnc2-c2ccco2)cc1	2.9%	>57
CN(C)S(=O)(=O)N1CCN(c2cc(Cl)ccc2Cl)CC1	-21.9%	>57
CCOC(=O)CCN1C(=O)[C@H]2[C@H]3[C@H](O)[C@H](O)C/C(=N/NC(=O)OCc4ccc(OC)cc4)[C@H]3CC[C@@H]2C1=O	5.0%[8 µM]	nt
CCC(C)NC(=O)CNC(=O)Cn1c(C)cc2ccccc2c1=O (centres undefined)	9.3%	>57
CC1(C)[C@@H]2CC[C@]1(C)[C@@H](OC(=O)CSC#N)C2	-7.6%[8 µM]	>57
O=C(N1CCN(c2ccccc2F)CC1)C12CC3CC(CC(C3)C1)C2	-17.1%	>57
CC(C)P(=O)(Cc1cccc(C#N)c1)C(C)C	-9.2%	>57
COCC(COCCCNC(=O)Nc1ccc(Br)cc1)OC (centres undefined)	6.5%	>57
Cn1cccc1C(=O)N1CCC2(CCCN(Cc3ccncc3)C2)CC1	?	>57
c1ccc2c(c1)nc(NC1CCCCC1)c1nncn12	16.6%	>57
CN(C)S(=O)(=O)N(CC(=O)NCc1ccccc1)c1ccccc1	-16.5%	>57
C=CCC1CCCCC12NC(=O)NC2=O (centres undefined)	-9.7%	nt
COc1cc(-c2nnc3sc(-c4ccco4)nn23)cc(OC)c1OC	?	>57
O=C(O)c1cc(N=Nc2ccc([N+](=O)[O-])cc2)ccc1O	?	>57
COCCNC(=O)C(c1ccccc1C)N(CCOC)C(=O)Cn1nnc2ccccc21 (centres undefined)	-4.5%	>57
c1cncc(CNCc2cccnc2)c1	-7.8%[8 µM]	>57

(next part)
canonical_smiles	Anthrax LT inh	Prx2 Sm inh
CCOC(=O)c1ccc(COc2nc3ccccc3nc2-c2ccccc2NC(C)=O)o1	3.4%	>57
CCCc1[nH]nc2c1C(c1ccc(O)c(OC)c1)C(C#N)=C(N)O2 (centres undefined)	-4.6%	>57
COc1ncnc2c1oc1nc(CC(C)C)c3c(c12)CCCC3	-7.4%	>57
O=C(Cn1nnc2c(cnn2-c2ccccc2)c1=O)NCc1cccs1	-19.9%	>57
CCCn1c(CCNC(=O)c2cccs2)nc2ccccc21	-6.5%	>57
CCN1C(=O)c2ccccc2S(=O)c2ccc(C(=O)NCCCN3CCCC3=O)cc21 (centres undefined)	7.1%	>57
CCOC(=O)N1CCN(CCC(=O)Nc2ccc(C)c(Br)c2)CC1	-7.9%	>57
COc1ccc(NC(=O)CN2C(=O)C(C)Oc3ccccc32)c(OC)c1 (centres undefined)	-22.1%	>57

Three entries drawn at random from the list so far, as already listed:
canonical_smiles	Anthrax LT inh	Prx2 Sm inh
COC(=O)C1(C)Nc2ccccc2C(=O)N1c1ccccc1C (centres undefined)	-10.2%	>57
Cc1noc(C)c1CSc1nnc(-c2ccccc2F)n1CCc1ccccc1	2.1%	>57
CN(CCC(=O)Nc1ccc2c(c1)OCO2)Cc1ccccc1	?	>57

(cont.)
canonical_smiles	Anthrax LT inh	Prx2 Sm inh
NC[C@@H]1O[C@H](O[C@@H]2[C@H](O[C@@H]3O[C@H](CO)[C@@H](O)[C@@H]3O)[C@@H](O)[C@@H](N)C[C@H]2N)[C@@H](N)[C@H](O)[C@@H]1O	6.7%[3.58 µM]	>57
O=C(Oc1ccccc1)c1cc2ccccc2o1	-9.5%	>57
O=C(Nc1ccc(Cl)cc1)C1CCCN(S(=O)(=O)c2cnc[nH]2)C1 (centres undefined)	-8.4%	>57
COC(=O)C1CCN(C(=O)Cc2ccc(Br)cc2)CC1	20.0%	>57
O=C(CCC(=O)c1ccc(F)cc1)OC1CCOC1=O (centres undefined)	11.0%	>57
Cc1cc(C)n(C(=O)c2ccc(NC(=O)C3COc4ccccc4O3)cc2)n1 (centres undefined)	-0.4%	>57
CCn1c(CSc2ncccn2)nnc1SCC(=O)N1c2ccccc2CC1C (centres undefined)	14.0%	>57
COCCCN1C(=O)C(=O)/C(=C(/O)c2ccc(C)cc2)C1c1ccccc1 (centres undefined)	-10.4%	>57

The closing 3 entries of the part above come first, to join the parts:
canonical_smiles	Anthrax LT inh	Prx2 Sm inh
Cc1cc(C)n(C(=O)c2ccc(NC(=O)C3COc4ccccc4O3)cc2)n1 (centres undefined)	-0.4%	>57
CCn1c(CSc2ncccn2)nnc1SCC(=O)N1c2ccccc2CC1C (centres undefined)	14.0%	>57
COCCCN1C(=O)C(=O)/C(=C(/O)c2ccc(C)cc2)C1c1ccccc1 (centres undefined)	-10.4%	>57
N#Cc1cccc(-c2cc(NCc3cccnc3)ncn2)c1	-1.1%	>57
C=CCc1ccc(OCC(O)CN2CCCCC2)c(OC)c1 (centres undefined)	9.1%	>57
CCn1cnc2cc(NCc3ccc(C)cc3)ccc21	?	>57
COCCNc1nc(-c2ccccc2Cl)nc2ccccc12	1.9%	>57
O=C(CCCSc1nnc(-c2cccs2)n1CC1CCCO1)c1ccccc1 (centres undefined)	-7.0%	>11.4
O=C1[C@@H]2C=CC=CC2=NC(=S)N1CCN1CCC(=C(c2ccc(F)cc2)c2ccc(F)cc2)CC1	15.5%	>57
Cc1cccc(NC(=O)CS(=O)(=O)c2c[nH]c3ccccc23)c1C	-16.7%	>57
Clc1ccc(-c2nnc(-c3ccco3)o2)cc1	9.3%	>57
CCn1c(C(=O)N2CCCC(C(=O)O)C2)cc2sccc21 (centres undefined)	4.1%	>57
CSC1=C(C#N)C2(CCCC2)C(C#N)=C(N)N1	-1.1%	>57
CC1CCc2cc(F)ccc2N1C(=O)CCC(=O)O (centres undefined)	-8.5%	>57
COc1ccc(C(=O)NCc2oc(-c3ccccc3)cc2C(=O)O)cc1	-8.3%	>57
COc1ccc(CCNC(=O)C2CCCN(S(=O)(=O)c3cnc[nH]3)C2)cc1OC (centres undefined)	5.2%	>57
COc1ccc(-c2noc(CSc3nc(-c4ccccc4)cc(=O)[nH]3)n2)cc1OC	12.0%	>57
CCCSc1nc2c(c(=O)[nH]c(=O)n2C)n1CCc1ccccc1	-0.9%	>57
CCCOc1ccc(CN(CCO)CCO)cc1C(=O)OC	nt	>57
COC(=O)NCc1ccc(CNC(=O)OC)cc1	-11.2%	>57
O=C(CCn1c(=O)[nH]c2ccccc2c1=O)N1CCN(c2ccc(Cl)cc2)CC1	9.7%	>57
COc1ccc(CCn2c(NCc3ccco3)nc3c2c(=O)[nH]c(=O)n3C)cc1	16.3%	>57
CCSc1nc(O)cc(=O)n1-c1ccc(OC)cc1	9.1%	nt
CCC(Sc1nc2c(c(=O)[nH]1)CCC2)C(=O)Nc1cccc(OC)c1 (centres undefined)	11.6%	>57
CC(=O)c1sc2nc(=O)c(C)nn2c1C	-6.8%	>57
COc1ccc(C2C(C(=O)Nc3cccnc3)=C(C)Nc3nc(-c4ccco4)nn32)cc1 (centres undefined)	-14.7%	>57
CC(=O)Oc1cccc(N2C(=O)C3CC=C(Cl)CC3C2=O)c1 (centres undefined)	-5.0%	>57
COc1ccc(C(c2sc3ncnn3c2O)N2CCN(c3ccccc3F)CC2)cc1OC (centres undefined)	?	>57
COC(=O)c1cc2sccc2n1CC(=O)Nc1ccc(OC)c(OC)c1OC	5.7%	>57
O=C(Cc1ccc(Cl)cc1)Nc1ccc2oc(-c3ccncc3)nc2c1	-4.9%	>57
CC(C)CO/N=C1/C[C@@H](O)[C@@H](O)[C@@H]2[C@@H]3C(=O)N(C(C)(C)C)C(=O)[C@H]3CC[C@@H]12	-8.0%[8 µM]	nt
COc1ccc(NC(=O)c2c(NC(=O)CNCc3ccco3)sc3c2CCC3)cc1	?	>57
COC(=O)Cn1c(C(=O)N(C)C)cc2c1C[C@H]1CN(C(=O)c3ccccc3)[C@@](Cc3ccc(OC)cc3)(C(=O)OC)[C@@H]21	3.9%	>57
CCn1cc(C(=O)NCCCN2CC(C)CC(C)C2)c2cc(OC)c(OC)cc2c1=O (centres undefined)	-4.4%	>57
CCN(CC)CCOc1ccc(Br)cc1	-13.2%	>57
CC1CN(C(=O)c2ccc3c(c2)OCO3)OC(c2ccccc2)O1 (centres undefined)	8.3%	>57
CCn1cc(C(=O)NCCCN(C)c2ccccc2)c(=O)c2cc(S(=O)(=O)N(C)C)ccc21	2.1%	>57
CCN(CC)S(=O)(=O)c1ccc(C(=O)Nc2ncn(Cc3ccccc3)n2)cc1	-2.1%	>57
Cc1ccc(CNC(=O)[C@H](C)[C@H]2C[C@]2(C)[C@H](NC(=O)OCc2ccccc2)c2ccccc2)o1	?	>57
COCCn1nnnc1C(c1ccccc1)N1CCN(C)CC1 (centres undefined)	7.8%	>57
CCC1(C)Cc2ccccc2-c2c1c(=O)n(Cc1ccccc1)c1nnnn21 (centres undefined)	-6.2%	>57
Cc1cc(-c2ccco2)n(CC(=O)NCCCc2ccccc2)n1	6.8%	>57
CC(C)c1nc(SCC(=O)N2CCOCC2)c2c(=O)n(C)c(=O)n(C)c2n1	-5.4%	>57
